From PubChem BioAssay
Rango-impB inh – prevents formation of the Rango-importin beta complex; Potency, µM (titrated, usually from 92.2 µM), without a hit: top-dose inhibition of complex formation; Rango CFP/YFP FRET sensor + importin beta, 45 min; AID 540263; 0.031% of 340,000 active; Q14974; active = rising FRET ratio curve, often small or poorly fitted; inconclusive = mostly compound fluorescence or quenching in the first reads; inactive = flat curves in all reads;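 also: potency is read from the fitted curve at half-maximal effect; 0% = DMSO wells and 100% = buffer wells lacking importin beta; nearly all actives have a fitted effect of over 15% in size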
Target sequence (Q14974 whole entry, looked up): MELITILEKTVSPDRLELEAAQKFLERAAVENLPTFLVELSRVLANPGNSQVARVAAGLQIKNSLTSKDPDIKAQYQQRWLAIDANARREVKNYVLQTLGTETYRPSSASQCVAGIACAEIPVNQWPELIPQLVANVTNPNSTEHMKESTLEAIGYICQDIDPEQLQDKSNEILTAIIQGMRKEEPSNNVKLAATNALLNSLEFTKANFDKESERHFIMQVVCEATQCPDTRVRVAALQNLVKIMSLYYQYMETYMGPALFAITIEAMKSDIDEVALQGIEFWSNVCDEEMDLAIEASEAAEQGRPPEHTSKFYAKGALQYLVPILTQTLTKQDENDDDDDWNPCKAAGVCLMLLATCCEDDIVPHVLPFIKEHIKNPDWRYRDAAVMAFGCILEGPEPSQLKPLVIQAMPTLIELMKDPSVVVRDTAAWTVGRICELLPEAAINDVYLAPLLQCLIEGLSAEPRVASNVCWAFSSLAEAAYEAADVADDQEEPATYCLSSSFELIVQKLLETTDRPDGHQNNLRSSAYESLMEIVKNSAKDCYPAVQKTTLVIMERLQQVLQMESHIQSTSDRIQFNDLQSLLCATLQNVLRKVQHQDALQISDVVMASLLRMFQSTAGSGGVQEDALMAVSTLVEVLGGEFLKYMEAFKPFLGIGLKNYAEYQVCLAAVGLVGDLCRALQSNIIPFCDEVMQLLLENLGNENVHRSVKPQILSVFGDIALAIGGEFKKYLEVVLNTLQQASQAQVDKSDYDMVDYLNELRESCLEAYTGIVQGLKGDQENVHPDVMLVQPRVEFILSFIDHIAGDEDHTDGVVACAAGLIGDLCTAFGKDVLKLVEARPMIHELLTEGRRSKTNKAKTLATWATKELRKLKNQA
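FRET biosensor (snurportin 1 IBB flanked by EYFP and cerulean), 50 nM, with compound 5 min, then 0.125 microM importin beta in PBS, 1 mM DTT, 0.02% Tween-20, 0.1% BSA. CFP/YFP ratio read after 45 min at room temperature; pre-read flags interference.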
GLA inh pH 4.5 – blocks human alpha-galactosidase A at pH 4.5; P06280; purified enzyme, 4-MU-alpha-Gal fluorescence, pH 4.5; activity change, negative = inhibition, % at 105 µM; 230,000 tested, under 10 active; inconclusive = small, poorly fitted or top-dose-only inhibition, or a rising curve; inactive = flat fitted curve, though single readings scatter; no compound was filed as active;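 also: 0% = full activity with enzyme and -100% = basal without enzyme; dose as in the result columns while the protocol names 77 µM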
Rango dissoc inh – prevents RanGTP from dissociating the Rango-importin beta complex | Biochemical FRET Rango-importin beta, RanGTP-induced dissociation | Potency, µM (top dose mostly 46.1 µM), for the others: at the highest dose activity change, negative = inhibition | 0.071% of 340,000 active | AID 540253; active means falling FRET ratio curve, often poorly fitted, with flat reads before Ran was added; inconclusive means other falling curves, or compound fluorescence or quenching; inactive means flat or rising ratio curve;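 also: potency is read from the fitted curve at half-maximal effect; % of control where 0% means no effect; nearly all actives have a fitted effect of over 45% in size; -100% = wells without RanGTP and RCC1; the record marks most hits as doubtful in a second field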
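Quantitative HTS using a FRET biosensor: 0.1 uM Rango, 0.25 uM importin beta, 0.6 uM Ran, 2 mM GTP, 0.2 uM RCC1 final, PBS with DTT, Tween-20 and BSA. Post-read taken 45 min after Ran addition.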
miR-21 FLuc – raises the signal of a miR-21 reporter; HeLa miR-21 FLuc reporter, luciferase, 48 h; Potency, µM (doses to about 38.3 µM), without a hit: top-dose reporter change, positive = more light; 340,000 tested, under 10 active; active = well fitted rising curve with a large enough effect; inconclusive = small, poorly fitted or top-dose-only effect; inactive = no such curve, though single readings can be large or run the other way;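 also: % of control where 0% means no effect; miR-21 action dims this reporter so a rising signal means less miR-21 action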
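HeLa miR-21-FLuc reporter line, endogenous miR-21; 2000 cells/well in DMEM/10% FBS; compound titration up to ~40uM final, 48 h, 37 degree Celsius; luciferase detection reagent, 15 min lysis, CCD luminescence.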
* marks the source's active call; other numbers are inactive results; ? = inconclusive; · = no result given; & = joins results of further samples; [ ] = another dose, or the depositor's remark. These rows are one share of the data, so the mix of outcomes need not match the whole.

Sample of the layout (2 entries):
SMILES	Rango-impB inh	GLA inh pH 4.5	Rango dissoc inh	miR-21 FLuc
CCN(C(=O)c1ccc2c(c1)OCO2)C1CCS(=O)(=O)C1 (configuration not stated)	2.6%	·	-14%	·
COC(=O)c1c(C(=O)NCc2ccccc2)ncn1CC(O)COc1ccccc1 (configuration not stated)	-1.2%	-4	2%	-5%

The listing (from the top)
SMILES	Rango-impB inh	GLA inh pH 4.5	Rango dissoc inh	miR-21 FLuc
CCN(C(=O)c1ccc2c(c1)OCO2)C1CCS(=O)(=O)C1 (configuration not stated)	2.6%	·	-14%	·
COC(=O)c1c(C(=O)NCc2ccccc2)ncn1CC(O)COc1ccccc1 (configuration not stated)	-1.2%	-4	2%	-5%
CN(C(=S)NC(=O)C1(C)CC1(Cl)Cl)c1ccccc1 (configuration not stated)	-2.6%	0	-1%	-3%
CC(=O)c1ccc(Nc2ncnc3c2oc2ccccc23)cc1	3.0%	3	-9%	-41%
CN1CCN(Cc2c(O)ccc3c(-c4ccccc4)cc(=O)oc23)CC1	?	-9	?	2%
CC(C(=O)N=Nc1c(O)n(C)c2ccc(Br)cc12)n1cnc2ccccc2c1=O (configuration not stated)	·	4	·	1%
CCOc1ccc2[nH]c(=O)c(C(c3nnnn3C3CCCCC3)N3CCN(C)CC3)cc2c1 (configuration not stated)	?	12	0%	-5%
Cc1ccc(S(=O)(=O)N2C[C@@H]3[C@H]4CC[C@H](C4)[C@@H]3[C@@H](C)[C@@H]2c2cn(Cc3ccccc3)c3ccc(F)cc23)cc1	-0.8%	·	8%	·
C=CCN1CCS(=O)(=O)N(Cc2ccccc2)[C@@H](C(C)C)C1=O	-3.5%	·	10%	·
CC(=O)Nc1cc(S(=O)(=O)C(F)(F)F)ccc1Cl	-1.3%	5	-13%	-14%
O=C(CCS(=O)(=O)Cc1ccccc1)N1CCc2ccccc2C1	1.1%	12	-11%	-2%
CCN(CC(=O)Nc1ccccc1C(F)(F)F)C(=O)c1cccc(S(=O)(=O)N2CCN(C)CC2)c1	-1.0%	·	8%	·
CN(C)C(=O)c1cccc(-c2csc(N3CCC(C(N)=O)CC3)n2)c1	-2.6%	·	14%	·
O=C(COC(=O)c1cncc(Br)c1)NCc1ccc(Cl)cc1	?	-3	-7%	-8%
C[C@@H](C(=O)Nc1ccc2ccccc2c1)[C@H]1C[C@]1(C)[C@H](NC(=O)OCc1ccccc1)c1ccccc1	-4.0%	?	-3%	9%
COc1ccc(S(=O)(=O)Nc2cccc(-c3ccc(N4CCCCCC4)nn3)c2)cc1OC	2.9%	·	0%	-43%&-43%
CCOC(=O)N1CCC(NC(=O)c2ccc3c(c2)N(Cc2ccccc2)CCS3)CC1	2.8%	-3	5%	-2%
Cc1ncc([N+](=O)[O-])n1Cc1cccc(F)c1	-3.2%	1	21%	-3%
COc1ccc(CC(=O)Nc2nc(-c3cc(OC)ccc3OC)cs2)cc1	-1.8%	4	-8%	12%
O=C(Nc1cc(Br)ccc1O)c1cnn2c(C(F)F)cc(C3CC3)nc12	3.1%	5	-7%	-12%
COc1ccccc1/C=C/C=C(\C#N)C(=O)NC(C)c1ccccc1 (configuration not stated)	?	·	-15%	0%
O=c1c2cc(F)ccc2[nH]c(=S)n1CCCN1CCOCC1	-0.1%	4	9%	-6%
COc1ccc(OC)c(NC(=O)CN(C)S(=O)(=O)c2ccc(Cl)cc2)c1	0.1%	7	-1%	-5%
Cc1cc(NCCO)nc(N2CCOCC2)n1	-0.8%	-2	10%	0%
O=C(O)c1cccc(NC(=O)c2cn(-c3ccccc3)nc2-c2ccncc2)c1	5.6%	-15	-15%	-1%
COc1ccc(CNC(=O)CN(Cc2cccs2)C(=O)CCC(=O)Nc2ccccn2)cc1	0.9%	8	0%	-1%
CCCCCN(C(=O)CCC(=O)OCC(=O)c1ccc(C(C)CC)cc1)c1c(N)n(CCCC)c(=O)[nH]c1=O (configuration not stated)	0.7%	·	19%	·
CS(=O)(=O)c1ccc(C(=O)OCC(=O)NC(=O)C2CCCCC2)cc1[N+](=O)[O-]	-1.8%	-12	19%	2%
Cc1cc2c(c(=O)n1Cc1cccnc1)C(c1ccc(F)cc1)C(C#N)=C(N)O2 (configuration not stated)	-2.4%	1	-9%	2%
OCCN1CCOCCN(CCO)CCN(CCO)CC1	-0.6%	-10	-11%	-2%

Given with two lines to a compound: part of the list above.
The line under a structure holds: Rango-impB inh, GLA inh pH 4.5, Rango dissoc inh, miR-21 FLuc
- CS(=O)(=O)c1ccc(C(=O)OCC(=O)NC(=O)C2CCCCC2)cc1[N+](=O)[O-]
→ -1.8%, -12, 19%, 2%
- Cc1cc2c(c(=O)n1Cc1cccnc1)C(c1ccc(F)cc1)C(C#N)=C(N)O2 (configuration not stated)
→ -2.4%, 1, -9%, 2%

Next section
SMILES	Rango-impB inh	GLA inh pH 4.5	Rango dissoc inh	miR-21 FLuc
COc1ccc(S(=O)(=O)N(C)C)cc1NCC(=O)Nc1cccc2ccccc12	-0.8%	·	-7%	·
Cc1ccc(-c2cc(C(=O)O)c3ccccc3n2)c(C)c1	-0.7%	2	30%	-37%
COC(=O)COc1ccc(S(=O)(=O)NCc2cccnc2)cc1	0.9%	-5	9%	1%
COc1ccccc1C(=O)NC(=Nc1nc2ccccc2o1)NC(=O)c1ccccc1OC	3.0%	1	-1%	-21%
COc1ccc(-c2noc(N3CCC(C(=O)Nc4ccccc4Cl)CC3)n2)cc1	6.0%	·	40%	-6%
Cc1ccc(C(=O)OCC(=O)Nc2ncc(C(F)(F)F)cc2Cl)cc1NC(=O)c1ccco1	-0.3%	-6	-7%	-3%
Cc1sc2ncnc(Oc3ccc(-n4ccnc4)cc3)c2c1C	0.9%	2	-2%	-9%
CCc1ccc(CN(C)C(=O)CCc2nc3ccccc3n(-c3ccc(OC)cc3)c2=O)cc1	-0.4%	-4	5%	29%
O=C(c1ccc(F)cc1)N1CCC(c2ccccc2)C1 (configuration not stated)	-1.1%	-18	0%	-67%
CC(NC(=O)c1cccc(C(F)(F)F)c1)C(c1ccccc1)N1CCOCC1 (configuration not stated)	3.9%	-2	16%	0%
CN(C)S(=O)(=O)c1ccc2[nH]cc(/C=C/c3nc4ccccc4c(=O)n3-c3ccccc3)c2c1	?	0	?	5%
COc1ccc(C(CC(=O)NCc2ccccc2)Sc2n[nH]c(-c3ccc(Cl)cc3)n2)cc1 (configuration not stated)	0.4%	1	-3%	-2%
Cc1ccc2c(c1)NC(=O)C(CC(=O)NCCN(CC(C)C)CC(C)C)O2 (configuration not stated)	3.0%	2	3%	0%
COc1ccc(-c2cn(-c3ccc(Cl)cc3)c3[n+]2CCCCC3)cc1	3.3%	0	6%	?
CC[C@]12c3[nH]c4ccc(OC)cc4c3CCN1C(=O)C(CC(=O)NCCCOC)C[C@@H]2C(=O)N1CCN(C(=O)c2ccco2)CC1 (some centres not stated)	-0.2%	·	1%	·
CCCCn1cnc2c(SCc3ccccc3)nc(N)nc21	-2.0%	·	1%	·
O=C1C=C(Nc2ccc(O)cc2)C(=O)c2ccccc21	-0.4%	-1	14%	1%
CCOC(=O)C1=C(CSc2nccn2C)NC(=O)NC1c1cc(C)ccc1C (configuration not stated)	1.5%	2	-8%	4%
O=C(N/N=C/c1cccc(Br)c1)c1ccc(N2CCCC2=O)cc1	-4.6%	·	10%	24%
O=[n+]1c2c(n([O-])c3cc(F)c(N4CCCC4)cc31)CCCC2	?	-6	?	-39%
CCOC(=O)N1CCN(C(=O)CSc2nnc(C3COc4ccccc4O3)o2)CC1 (configuration not stated)	0.2%	-8	8%	4%
CC(C)N1CCN(Cc2nc3c(s2)CCCC3)CC1CCO (configuration not stated)	3.5%	-1	-7%	2%
C=CCN(CC=C)CC(=O)Nc1cccc(Oc2cnccn2)c1	1.9%	·	16%	-7%
Cc1oc(C(=O)O)cc1CSCc1ccoc1C(=O)O	2.3%	7	-1%	-8%
COc1cccc(-n2ccnc2SCC(=O)N2CCCc3ccccc32)c1	-0.2%	-3	-11%	-13%
CC(=O)c1ccccc1NC(=O)COC(=O)c1cc(C)oc1C	0.8%	·	11%	·
COc1ccc(S(=O)(=O)N2CCC(C(N)=O)(N3CCCCC3)CC2)cc1	7.0%	0	-6%	0%
COc1ccccc1-n1cnc2sc(C)c(C)c2c1=O	-0.8%	·	-5%	-14%
CCOc1ccc(CC2CCC(=O)NC2=O)cc1 (configuration not stated)	7.1%	·	10%	-2%
Cc1cccc(/C=C2/C(=O)/C(=C/c3ccccc3C)C3CCC2N3C)c1 (configuration not stated)	3.3%	4	19%	1%
COCCOC1CCN(Cc2cn(Cc3ccccc3)nc2-c2cc3ccccc3o2)CC1	0.5%	-3	0%	-4%
Cc1ccc2c(c1)C(c1ccccc1)N(C(=O)c1c(F)cccc1Cl)CC(=O)N2 (configuration not stated)	-1.0%	·	-15%	6%
Cc1ccc(NC(=O)C2CCN(c3cnccn3)CC2)cc1	-0.7%	-2[21.1 µM]	11%	-6%
O=C(CCCNC(=O)/C(=C/c1ccc(Br)cc1)NC(=O)c1ccccc1)OCc1ccccc1	-3.9%	2	-4%	-4%
CC(C)(C)n1ncc2c(=O)n(Cc3cccc(Cn4cnc5c(cnn5C(C)(C)C)c4=O)c3F)cnc21	-1.0%	·	0%	·
CSc1nc2c(c(=O)[nH]1)C(c1ccc(C(F)(F)F)cc1)CC(=O)N2 (configuration not stated)	-2.2%	-4	6%	1%
S=C(Nc1ccc(Br)cc1Cl)N1CCCC1	0.2%	·	-8%	0%
CCc1c(C)[nH]c2ccccc2c1=O	0.7%	1	1%	0%
COc1cccc(-n2nnnc2SCC(=O)Nc2ccc(C(C)=O)cc2)c1	0.6%	5	-12%	-9%
Cc1ccc(NC(=O)COC(=O)Cc2ccsc2)cc1S(=O)(=O)N1CCOCC1	-2.1%	-14	-5%	-3%

2 entries drawn at random from the list so far, as already listed:
SMILES	Rango-impB inh	GLA inh pH 4.5	Rango dissoc inh	miR-21 FLuc
Cc1ccc(NC(=O)C2CCN(c3cnccn3)CC2)cc1	-0.7%	-2[21.1 µM]	11%	-6%
CCc1c(C)[nH]c2ccccc2c1=O	0.7%	1	1%	0%

Next part:
SMILES	Rango-impB inh	GLA inh pH 4.5	Rango dissoc inh	miR-21 FLuc
COc1ccc([N+](=O)[O-])cc1NC(=O)Cc1noc2ccc(C)cc12	-1.2%	9	1%	1%
CC(C)c1ccc(/C=C/C2=NNC(=O)CC2)cc1	8.7%	-1	2%	3%
O=C(Nc1ccc(OC(F)(F)C(F)F)c(NC(=O)c2ccc(F)cc2)c1)c1ccc(F)cc1	0.0%	·	-1%	·
CCN(C(=O)c1ccc(Cl)c(S(=O)(=O)Nc2c(C)n(C)n(-c3ccccc3)c2=O)c1)c1ccccc1	-1.0%	·	27%	·
Cc1cccc(NC(=O)C2CC(=O)OC23CCCCC3)c1 (configuration not stated)	-1.2%	13	27%	2%
COCC(C)n1c(SCC(=O)Nc2ccc3c(c2)OCCO3)nc2ccccc2c1=O (configuration not stated)	-3.9%	·	-12%	·
Cc1ccccc1OCC(=O)Nc1cccc(C(=O)O)c1	-2.5%	3	1%	-9%
COC(=O)c1sccc1NC(=O)CN1CCN(c2ccc(F)cc2)CC1	-1.0%	3	-9%	0%
CCN(C(=O)COC(=O)C(c1ccccc1)c1ccccc1)c1c(N)n(Cc2ccccc2)c(=O)[nH]c1=O	-2.1%	·	3%	·
COc1cccc(C(=O)COC(=O)CCC(=O)c2ccccc2)c1	1.7%	·	14%	0%
CCCOc1ccccc1-n1sc2c(c1=S)-c1cc(OC)cc3c1N(C(=O)C3=O)C2(C)C	0.0%	-19	-10%	8%
COC(=O)[C@]1(C)N[C@H](CN(C)S(=O)(=O)c2ccc(OC(F)(F)F)cc2)[C@@H]2C(=O)N(Cc3ccccc3)C(=O)[C@@H]21	4.6%	·	-5%	·
CC(=O)c1cccc(OCc2cc(C(=O)N(C)C(C)c3ccccn3)no2)c1 (configuration not stated)	1.0%	·	22%	2%
O=C(Nc1ccc(NC(=O)C2CC2)nc1)c1ccccn1	-0.9%	2	-7%	6%
